2A StopGo: FMDV 2A StopGo reporter, luciferase signal | actives 1.2% (n = 410,000) | AID 1159524 | Potency, µM (highest dose often 57.9 µM), without a hit: top-dose signal change, negative = less light | human cells with a luciferase reporter of 2A StopGo recoding; control for the full effect not named in the record; active = well fitted falling curve with a large enough effect; inconclusive = small, poorly fitted or top-dose-only effect; inactive = no such curve, though single readings can be large or run the other way; tested in HEK293T cells; also: % is scaled to controls: 0 for no effect and ±100 for the full control effect; nearly all actives have a fitted effect of over 45% in size; luciferase light after 4 h
Lassa entry inh: Lassa virus entry inhibition. Lassa virus pseudotype entry inhibition, cell reporter; control for the full effect not named in the record. Potency, µM (series often up to 37.9 µM), for inactives: at the top dose activity change, negative = inhibition, usual class: inhibitors. actives 1.2% (n = 300,000). AID 540256; active means well fitted inhibition curve with a large enough effect; inconclusive means small, poorly fitted or top-dose-only effect, or effect the other way; inactive means flat fitted curve, though single readings scatter; tested in HEK293 cells; also: % is scaled to controls: 0 for no effect and ±100 for the full control effect; nearly all actives have a fitted effect of over 50% in size; luciferase read-out
Cruzain noTriton: inhibitors of Trypanosoma cruzi cruzain without detergent; P25779; purified cruzain, Z-FR-AMC fluorescence, no detergent; Potency, µM, without a hit: max response, negative = inhibition, actives largely listed as inhibitors; actives 2.3% (n = 200,000); AID 1476; active = well fitted curve in the direction sought with a large enough effect; inconclusive = small, poorly fitted or top-dose-only effect, or another doubt; inactive = no such curve, though single readings can be large; an effect the other way counts as inactive or inconclusive;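 also: plate controls were enzyme without inhibitor for no effect and buffer without enzyme for full effect; nearly all actives have a fitted effect of over 40% in size; top concentration of the series not given in the record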
Target sequence (P25779 123-467 limits assumed): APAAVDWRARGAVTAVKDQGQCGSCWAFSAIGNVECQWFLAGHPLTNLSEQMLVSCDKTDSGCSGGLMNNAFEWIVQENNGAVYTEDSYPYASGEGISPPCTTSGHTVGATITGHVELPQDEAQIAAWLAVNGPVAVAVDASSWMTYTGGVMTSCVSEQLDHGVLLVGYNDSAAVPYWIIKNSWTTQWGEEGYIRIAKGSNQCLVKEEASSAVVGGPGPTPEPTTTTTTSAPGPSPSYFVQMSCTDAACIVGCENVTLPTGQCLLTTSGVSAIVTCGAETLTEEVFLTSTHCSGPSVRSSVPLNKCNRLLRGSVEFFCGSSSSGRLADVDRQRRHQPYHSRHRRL
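Detergent-free condition (0.00005% Triton X-100) in acetate buffer pH 5.5 with DTT. 1.5 nM enzyme and compound were pre-mixed 15 min, then 2 uM Z-FR-AMC substrate added; reaction progress from fluorescence change between first and third reads (60 s).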
RE007 growth inh: less growth of the S. pombe RE007 Vpr strain. S. pombe RE007 Vpr strain, BacTiter-Glo ATP luminescence, 24 h; control for the full effect not named in the record. actives 0.21% (n = 360,000). AID 651644. Potency, µM (highest dose often 92.2 µM), for the others: at the top dose activity change, negative = less growth; active = well fitted falling curve with a large enough effect; inconclusive = small, poorly fitted or top-dose-only effect; inactive = no such curve, though single readings can be large or run the other way;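 also: % is scaled to controls: 0 for no effect and ±100 for the full control effect; nearly all actives have a fitted effect of over 50% in size; the assay follows cell death caused by Vpr and the record does not say whether a fall means rescue or toxicity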
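Fission yeast strain RE007, carrying one chromosomally integrated HIV-1 vpr copy, was seeded at OD 0.01 in PMG+AL medium with 23 nL pinned compound. After 24 h at 30 °C and 99% humidity, viability was read by BacTiter-Glo luminescence.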
SARS PLpro yeast: blocks SARS-CoV papain-like protease in a yeast assay; S. cerevisiae expressing SARS-CoV PLpro, growth rescue; control for the full effect not named in the record; Potency, µM (titrated, usually from 32.9 µM), for inactives: top-dose activity, positive = growth rescue; actives 0.19% (n = 330,000); also: 0% is about no effect; nearly all actives have a fitted effect of over 55% in size; growth read by luminescence after 48 h
NS1 function inh: influenza NS1 inhibition; actives 0.4% (n = 270,000); Potency, µM (titrated, usually from 46.1 µM), for the others: top-dose activity, positive = more growth; S. cerevisiae slowed by influenza A NS1, growth recovery by OD600; also: actives are rising curves; nearly all actives have a fitted effect of over 50% in size
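Read-out: OD600 growth recovery of NS1-expressing budding yeast. Cells grown overnight at 30C in -URA glucose medium, washed, resuspended and diluted 1:100 in 2% galactose assay medium, pH 6.0. Same strain lacking NS1 served as positive control.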
Cruzain Triton: inhibitors of Trypanosoma cruzi cruzain with detergent; purified cruzain, Z-FR-AMC fluorescence, 0.01% Triton; AID 1478; Potency, µM, for the others: max response, negative = inhibition, most hits filed as inhibitors; actives 0.43% (n = 200,000); active = well fitted curve in the direction sought with a large enough effect; inconclusive = small, poorly fitted or top-dose-only effect, or another doubt; inactive = no such curve, though single readings can be large; an effect the other way counts as inactive or inconclusive;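 also: plate controls were neutral wells for no effect and buffer without enzyme for full effect; nearly all actives have a fitted effect of over 40% in size; top concentration of the series not given in the record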
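Purified cruzain (1.5 nM final) was preincubated with compounds for 15 min at room temperature in 100 mM sodium acetate pH 5.5, 5 mM DTT, 0.01% Triton X-100. Reaction started with 2 uM Z-FR-AMC; AMC fluorescence change over 60 s gave activity.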
MARV entry inh: inhibitors of Marburg virus binding or cell entry | actives 1.8% (n = 300,000) | Marburg virus pseudotyped entry inhibition, cell reporter; control for the full effect not named in the record; about a third of the inactives were read at about 46 µM | Potency, µM (series often up to 37.8 µM), inactives show at the highest dose activity change, negative = inhibition, usual class: inhibitors; active = well fitted inhibition curve with a large enough effect; inconclusive = small, poorly fitted or top-dose-only effect, or effect the other way; inactive = flat fitted curve, though single readings scatter; tested in HEK293 cells; about a fifth of its hits are not listed in these tables; also: % is scaled to controls: 0 for no effect and ±100 for the full control effect; luciferase read-out
Starred values were filed as active, the others as inactive; ? = inconclusive; . = no result given; [ ] = another dose, or the depositor's remark. Unless noted, calls follow the shape of the dose curve; as a rule, active means well fitted rising curve with a large enough effect; inconclusive means small, poorly fitted or top-dose-only effect; inactive means no such curve, though single readings can be large or run the other way. Potency is read from the fitted curve at half-maximal effect.

SMILES | 2A StopGo | Lassa entry inh | Cruzain noTriton | RE007 growth inh | SARS PLpro yeast | NS1 function inh | Cruzain Triton | MARV entry inh
O=C(COC(=O)c1ccc2ccccc2n1)Nc1cccc(S(=O)(=O)NC2=NCCCCC2)c1 | 16% | 6% | . | -8% | -5% | . | . | 2%
O=C(CN(C1CCCCC1)S(=O)(=O)c1ccccc1)NCc1ccco1 | . | -25% | -15% | 4% | 14% | 19% | -14% | -1%
COc1ccc(CN(C)CC(=O)N2CCc3ccccc3C2)cc1 | 7% | -29%[46.1 µM] | . | 4% | 3% | -2% | . | -1%[46.1 µM]
COc1cccc(N2CCN(S(=O)(=O)c3cn(C)c(C)n3)CC2)c1 | -11% | ? | -3% | . | . | . | 0.5% | .
Cc1cc(-c2n[nH]c(=S)n2/N=C/C(Br)=C/c2ccccc2)n[nH]1 | 35µM* | ? | -23% | ? | -90% | -16% | -5.1% | 10µM*
O=C(NC1CCCCC1)c1ccc(COCC(F)(F)F)o1 | 11% | -1% | -1% | -11% | 5% | -7% | 0.0% | 4%
O=C(CNc1ccc2ccccc2c1)N/N=C/c1cc2ccccc2nc1Cl | 16% | -14% | 25µM* | -27% | -46% | 24% | -14% | ?
CCN1CCN(Cc2ccc(NC(=O)Nc3ccccc3OC)cc2)CC1 | 32%[activator] | . | -1% | 11% | 0% | -7% | 2.7% | .
COc1ccc(/C(C)=N/N=C2/NC(=O)CC(C(=O)O)S2)cc1F (stereo unspecified) | -3% | . | . | 6% | -1% | -36% | . | .
C/C(CC(=O)Nc1ccc(Cl)c(C(F)(F)F)c1)=N\NC(=O)c1cc2ccccc2cc1O | ? | ? | ? | 1% | 1% | 3% | -9.9% | ?
Cc1ccccc1NC(=S)N1CCCC1 | -20% | 0% | -4% | -16% | 24% | 10% | 1.6% | -6%
COC(=O)CS(=O)(=O)c1ccsc1C(=O)Nc1ccc(F)cc1 | 22% | -12%[46.1 µM] | . | -6% | 2% | . | . | -9%
CCc1ccc(S(=O)(=O)NC2CCCCNC2=O)cc1 (stereo unspecified) | 2% | . | . | 3% | 0% | 4% | . | .
Oc1ccccc1C=NN=CC=Cc1ccccc1 | -1% | -21% | . | -7% | . | . | . | 3%
CCC1CCCCN1S(=O)(=O)c1ccc(NC(=O)c2cc(=O)c3c(C)cc(C)cc3o2)cc1 (stereo unspecified) | -16% | 3%[46.1 µM] | ? | . | . | . | -2.7% | -18%[46.1 µM]
Cc1ccc(CN2CCCn3nc(C(=O)NCCc4ccccc4Cl)cc3C2=O)cc1 | -10% | ? | -3% | . | . | . | -3.2% | .
Cn1nc(-c2ccccc2)c(C(=O)NCC(=O)O)c1Cl | 4% | -3% | . | 2% | -3% | . | . | 5%[46.1 µM]
CCOC(=O)CC(=O)Nc1nnc(CC(C)C)s1 | 18% | 7% | 3% | 32% | 3% | ? | 0.6% | 1%[46.1 µM]
CCOC(=O)CC1=C(C(=O)OCC)C2(C(=O)N1CC(=O)OC)C(C#N)=C(N)Oc1ccccc12 (stereo unspecified) | 9% | -14% | 5% | -7% | -3% | 0% | 4.6% | 2%
Cc1cc(C(=O)NCC(=O)OCC(=O)N(C(C)C)C(C)C)ccc1[N+](=O)[O-] | -13% | ? | -15% | -16% | 11% | 5% | -18% | 15%
Cc1cc(NC(=O)C(C)SCC(=O)OC(C)C(=O)Nc2ccccc2C)no1 (stereo unspecified) | 3% | 1%[46.1 µM] | . | -9% | 5% | 6% | . | -7%[46.1 µM]
Cc1nnc(NC(=O)CSc2nnc(C(C)NC(=O)c3ccccc3F)n2C)s1 (stereo unspecified) | 16% | 8%[46.1 µM] | . | -5% | 8% | 3% | . | -5%[46.1 µM]
CCCCCC(=O)NC(=S)Nc1ccc(Cl)cn1 | 37%[activator] | 3% | -20% | -16% | 4% | 4% | -12% | 24%
Cc1ccc(-c2nnc(SCC(=O)NC3CCCC3)nc2-c2ccc(C)cc2)cc1 | -16% | -2%[46.1 µM] | 13µM* | . | . | . | ? | .
O=C(COC(=O)c1ccc(Br)cc1)NCCc1ccccc1 | -5% | 7% | 4% | -4% | -3% | -16% | -1.6% | ?
New compounds follow
SMILES | 2A StopGo | Lassa entry inh | Cruzain noTriton | RE007 growth inh | SARS PLpro yeast | NS1 function inh | Cruzain Triton | MARV entry inh
O=C(Nc1ccc(N2CCOCC2)cc1)c1ccc(Cl)nc1 | 17% | 13% | -4% | 3% | 1% | 4% | -1.3% | 2%
O=C(N/N=C/c1cnc(N2CCOCC2)s1)c1ccccc1 | 30%[activator] | 14% | . | 18% | 2% | 1% | . | ?
COc1ccc(CCNC(=O)CCC(=O)N2CCOc3ccccc32)cc1OC | -15% | . | . | 3% | -2% | -9% | . | .
Cn1ccc2cc(S(=O)(=O)N3CCC(C(=O)NCCc4ccccc4)CC3)ccc21 | -13% | -2%[46.1 µM] | -8% | . | . | . | -2.6% | .
COc1cccc(C(=O)N2CCN(Cc3cccc(F)c3)CC2)c1 | -9% | 6% | 4% | 1% | 5% | -4% | 7.3% | -11%
O=C(N/N=C/c1ccc(-c2ccc([N+](=O)[O-])cc2)o1)C(O)c1ccccc1 (stereo unspecified) | -6% | -17% | -6% | -9% | 7% | -22% | -9.1% | ?
S=c1[nH]nc(-c2ccccn2)n1/N=C/c1c(Cl)cccc1Cl | -20% | ? | . | 3% | -1% | 2% | . | 6%
Cc1cc(C)cc(OCC(=O)OCC(=O)Nc2c(C)n(C)n(-c3ccccc3)c2=O)c1 | -7% | 11% | . | 57% | -1% | 7% | . | 20%[46.1 µM]
Nc1nnn(CC(=O)N/N=C/c2ccc(Cl)cc2Cl)n1 | 9% | . | . | 10% | 0% | 3% | . | .
COc1cccc(NC(=O)CSC2=Nc3ccccc3C3=NC(CC(=O)NC4CCCCC4)C(=O)N23)c1 (stereo unspecified) | ? | 22%[46.1 µM] | -3% | . | . | . | -0.7% | .
CN1C(=O)C[N+]([O-])=C(c2ccccc2)c2cc(Cl)ccc21 | -2% | 7%[46.1 µM] | . | -1% | . | . | . | -15%[46.1 µM]
N#C/C(=C\c1ccc(OCC(N)=O)cc1)c1ccccc1 | 30%[activator] | -1% | ? | -9% | 6% | -7% | ? | -11%
O=C(COC(=O)CCOc1ccccc1)Nc1ncc(Cl)cc1Cl | -20% | 25% | 7% | 14% | ? | -5% | -3.5% | -14%
COc1ccc(CNC(=O)C2CCCN(c3nc4ccccc4o3)C2)c(OC)c1 (stereo unspecified) | 17% | -24% | ? | 15% | 7% | ? | 0.5% | ?
CCCCOc1ccc(CCC(=O)N/N=C/c2ccco2)cc1 | 11% | ? | . | 12% | -3% | -4% | . | 2%[46.1 µM]
O=C(CSc1nnc(-c2ccc(Cl)cc2)o1)N1CCN(c2ccccc2)CC1 | . | . | 16µM* | . | -2% | 2% | -6.7% | 5%
COC(=O)C1=C(N)Oc2cc(C)oc(=O)c2C12C(=O)Nc1ccccc12 (stereo unspecified) | -8% | 0% | . | -15% | 1% | . | . | 0%
Cc1ccc(N2C(=O)C(NC(=O)c3c(F)cccc3F)(C(F)(F)F)C3=C2CC(C)(C)CC3=O)cc1 (stereo unspecified) | 13% | -6% | ? | -11% | -2% | -4% | -6.3% | ?
O=C1NC(c2ccccc2)C(C(=O)c2cccs2)C(O)(C(F)(F)F)N1 (stereo unspecified) | -6% | -1% | -6% | 4% | -15% | -2% | 5.2% | -3%
COc1cc(OC)c(C2CC(=O)N3CN(C)CSC3=C2C#N)cc1OC (stereo unspecified) | -24% | . | -4% | -8% | 0% | -50% | -2.0% | -4%
Cc1cc(-c2nc(-c3ccncc3)no2)ccc1[N+](=O)[O-] | 65%[activator] | -16% | . | 10% | -3% | 2% | . | ?
O=C(NC1CCCc2ccccc21)C1CCN(c2c3c(nc4ncnn24)CCC3)CC1 (stereo unspecified) | -28% | -14% | 10% | 2% | 1% | ? | 0.3% | ?
O=C(Nc1ccc(S(=O)(=O)N2CCCCCC2)cc1)c1ccco1 | -8% | ? | -24% | 3% | -6% | -18% | -2.5% | ?
Cc1ccc(NS(=O)(=O)c2ccc(-n3cccn3)cc2)c(Br)c1 | ? | -6%[46.1 µM] | -8% | 6% | . | . | -9.5% | .
COc1ccccc1C(=O)NC(=O)COC(=O)c1ccc(NC(=O)CC#N)cc1 | 0% | 0% | . | -18% | 1% | . | . | 3%
Later entries:
SMILES | 2A StopGo | Lassa entry inh | Cruzain noTriton | RE007 growth inh | SARS PLpro yeast | NS1 function inh | Cruzain Triton | MARV entry inh
O=c1c2ccccc2nc(/C=C/c2ccccn2)n1-c1ccccc1 | ? | . | . | -1% | 2% | -3% | . | .
COc1cc(NC(=O)c2cc3c(=O)n(Cc4cccs4)ccc3nc2C)cc(OC)c1OC | 0% | -17%[46.1 µM] | ? | . | . | . | -8.4% | .
C=CCN(c1ccccc1)S(=O)(=O)c1cccc(C(=O)OCC(=O)NC2CC2)c1 | 26% | 1% | . | -22% | 3% | . | . | -3%[14.2 µM]
CCOC(=O)CN(C)Cc1c[nH]c2ccccc12 | . | . | ? | . | -5% | 2% | -1.0% | -3%
CCCOc1nc2c(c(=O)n(C)c(=O)n2C)n1Cc1cccc2ccccc12 | . | -19% | ? | 3% | -1% | -122% | -5.4% | ?
CCCc1cc(=O)[nH]c(SCCCCN2C(=O)c3ccccc3C2=O)n1 | ? | -8%[46.1 µM] | . | 24% | -1% | . | . | -8%[46.1 µM]
CCOc1ccccc1N(C)C(=O)Cn1nc(Cc2ccncc2)c2ccccc2c1=O | -8% | -17%[46.1 µM] | -9% | . | . | . | -2.8% | ?
CNC(=S)Nc1ccc(N2CCCC2)c(S(=O)(=O)Nc2ccc(OC)cc2)c1 | 59%[activator] | -10% | . | -6% | -5% | . | . | -18%
Cc1occc1-c1nnc(SC(C)C(=O)Nc2ccccc2F)o1 (stereo unspecified) | 24% | 11µM* | . | -4% | -5% | . | . | ?

Screening results deposited in PubChem BioAssay by National Center for Advancing Translational Sciences (NCATS).
